RanGTP-Imp inh – disruptors of Ran-importin-beta complex formation – biochemical, FRET, CFP-Ran, YFP-importin-beta, homogeneous, primary screen; hit rate 1.1% among 300,000; AID 2216; cell-free CFP-Ran/YFP-importin-beta FRET ratio; inhibition, % (no concentration beside the values);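 active = most replicates above 15%; inconclusive = exactly half above 15%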;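 note: 0% = DMSO wells and 100% = Ran loaded with GDP instead of GTP; wells of about 40 µL received 100 nL stock; the first replicate is given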
Beta apoptosis – beta cell apoptosis inhibition; protection from apoptosis, % (test concentration not listed); INS-1E cytokine-induced death, ATP luminescence, 48 h; percent of positive-control rescue, neutral wells zero; hit rate 0.8% among 300,000; AID 435005;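 active = all replicates at 75% or more, or half of them and the mean; inconclusive = half reach 75% but not the mean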;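 note: 0% = cytokine-treated negative control wells and 100% = positive control rescue; higher means more ATP so stronger rescue from cytokine killing; wells of about 40 µL received 100 nL stock; the first replicate is given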
T cruzi inh – T. cruzi replication inhibition; T. cruzi beta-gal in NIH3T3, luminescence, 90 h; hit rate 1.4% among 300,000; AID 1885; inhibition, % (no concentration beside the values);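 active = mean inhibition across valid replicates above about 55%, limit read from the data; inconclusive = mean below that limit but half or more replicates reach it; inactive = mean below it, under half of replicates reach it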;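 note: signal also drops with host cell toxicity which is not excluded here; 0% = plate median of DMSO wells and 100% = zero luminescence signal; higher percent means less beta-gal luminescence so fewer parasites; stock transfer was 50 nL into about 50 µL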
Calb FLC – C. albicans growth modulation with fluconazole | hit rate 0.57% among 300,000 | C. albicans CaCi-2 (fluconazole-resistant clinical isolate) + fluconazole, Alamar Blue growth, 48 h | growth inhibition, % (no concentration beside the values);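 active = most replicates above 75%; inconclusive = exactly half above 75%; inactive = most below 75%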;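 note: all wells also contain fluconazole at 8 µg/ml as a sub-toxic cotreatment; 0% = median of DMSO wells and 100% = median of geldanamycin control wells; wells of about 8 µL received 7.5 nL stock; the first replicate is given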
Beta2AR agonist – activates human beta-2 adrenergic receptor causing internalization; Am2.2-beta2AR cells, FAP receptor internalization, flow cytometry; reference of the scale not given here; hit rate 0.43% among 340,000; P07550; response, % (concentration not given with the values);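 active = response above a set limit, near 3 SD of response in nonfluorescent compounds, cut at about 42% in these data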;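 note: stock transfer was 100 nL into about 11 µL; a reference agonist was the positive control; negative values mostly stem from fluorescent compounds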
UCH37 inh – blocks the human deubiquitinase UCH37; Q9Y5K5; purified proteasome/UCH37, Ub-AMC cleavage fluorescence; inhibition, % (no concentration beside the values); hit rate 0.33% among 330,000; AID 588478;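 active = mean of two replicates above 20%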;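 note: 0% = compound-free wells with enzyme and 100% = wells lacking proteasome; stock transfer was 100 nL into about 20 µL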
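Material: human UCH37 enzyme supplied as purified proteasome complex / Amount: 0.15 nM proteasome as dispensed / Buffer or medium: pH 7.4 Tris-HCl (50 mM) with ovalbumin, ATP-MgCl2, DTT / Times: preincubation 30 min, reaction 25 min, room temperature / Technique: AMC fluorescence from Ub-AMC cleavage, excitation 355 nm, emission 460 nm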
A1 inh – inhibitors of the anti-apoptotic protein A1, read as caspase activation | hit rate 0.066% among 330,000 | caspase activation, % (no concentration beside the values) | MEF A1-2A-BIM cells, Caspase-Glo 3/7 luminescence, 3 h; percent of clofoctol response, vehicle zero | AID 2462;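 active = over half of replicate activation scores above 10%, or exactly half above 10 with the replicate mean above 10; inconclusive = replicate mean below 10 yet half the replicates above 10; inactive = over half of replicates below 10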;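 note: wells of about 30 µL received 50 nL stock; many hits fall short of the cut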
LANA-H2A inh – blocks KSHV LANA binding to histone H2A/H2B. AID 2629. Q9QR71. cell-free LANA-H2A/H2B peptide, fluorescence polarization. inhibition, % (no concentration beside the values). hit rate 0.6% among 320,000; in the data active = inhibition mostly above about 10%, no sharp cut-off; inactive = mostly below about 6.7%;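 note: stock transfer was 7.5 nL into about 10 µL; 0% = median of vehicle wells and 100% = median of positive control wells; one replicate is shown; the record names a cut of 25% in any replicate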
Target sequence (Q9QR71 whole entry, looked up): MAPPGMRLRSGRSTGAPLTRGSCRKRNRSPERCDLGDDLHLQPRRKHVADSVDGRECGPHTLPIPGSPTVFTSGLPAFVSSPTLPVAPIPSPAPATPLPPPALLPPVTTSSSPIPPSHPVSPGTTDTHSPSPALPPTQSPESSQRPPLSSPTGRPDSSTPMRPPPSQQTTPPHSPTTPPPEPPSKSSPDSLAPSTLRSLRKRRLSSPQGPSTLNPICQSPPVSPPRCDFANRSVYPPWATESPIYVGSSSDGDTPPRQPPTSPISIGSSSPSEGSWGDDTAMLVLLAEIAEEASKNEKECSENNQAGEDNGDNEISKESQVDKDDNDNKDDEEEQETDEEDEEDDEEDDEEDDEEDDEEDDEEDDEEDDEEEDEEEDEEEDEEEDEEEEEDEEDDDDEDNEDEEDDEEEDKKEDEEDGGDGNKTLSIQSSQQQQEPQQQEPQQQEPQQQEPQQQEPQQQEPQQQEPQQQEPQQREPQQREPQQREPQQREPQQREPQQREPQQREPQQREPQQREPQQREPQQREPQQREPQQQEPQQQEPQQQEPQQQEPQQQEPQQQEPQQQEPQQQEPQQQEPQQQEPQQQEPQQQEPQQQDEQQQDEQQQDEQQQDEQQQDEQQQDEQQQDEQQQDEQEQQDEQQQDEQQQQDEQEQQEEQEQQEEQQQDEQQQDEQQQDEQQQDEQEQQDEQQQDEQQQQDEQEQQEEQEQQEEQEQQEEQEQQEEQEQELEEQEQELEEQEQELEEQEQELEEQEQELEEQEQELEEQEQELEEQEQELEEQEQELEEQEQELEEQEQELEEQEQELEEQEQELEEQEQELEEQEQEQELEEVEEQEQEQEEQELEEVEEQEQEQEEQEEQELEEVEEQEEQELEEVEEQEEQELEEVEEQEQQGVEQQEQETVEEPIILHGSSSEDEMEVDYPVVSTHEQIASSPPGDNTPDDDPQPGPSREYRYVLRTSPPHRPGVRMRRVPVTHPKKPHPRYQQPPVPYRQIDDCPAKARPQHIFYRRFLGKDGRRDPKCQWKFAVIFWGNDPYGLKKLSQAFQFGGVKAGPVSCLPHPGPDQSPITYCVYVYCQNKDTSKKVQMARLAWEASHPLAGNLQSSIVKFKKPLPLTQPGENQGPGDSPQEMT
Numbers without * were called inactive; ? = inconclusive; . = no result given.

Preview (2 entries):
SMILES	RanGTP-Imp inh	Beta apoptosis	T cruzi inh	Calb FLC	Beta2AR agonist	UCH37 inh	A1 inh	LANA-H2A inh
Cc1ccc(-n2nc3c(c2NC(=O)C2CCCC2)CS(=O)(=O)C3)cc1	2.8	0	1	10	2	2.1	-0.8	0.3
C=CCN1C(=NC(=O)CCCC(=O)O)SC2CS(=O)(=O)CC21 (configuration not stated)	.	-2	.	.	-2	-1.4	-0.9	-4.9

This part in full, previewed entries included:
SMILES	RanGTP-Imp inh	Beta apoptosis	T cruzi inh	Calb FLC	Beta2AR agonist	UCH37 inh	A1 inh	LANA-H2A inh
Cc1ccc(-n2nc3c(c2NC(=O)C2CCCC2)CS(=O)(=O)C3)cc1	2.8	0	1	10	2	2.1	-0.8	0.3
C=CCN1C(=NC(=O)CCCC(=O)O)SC2CS(=O)(=O)CC21 (configuration not stated)	.	-2	.	.	-2	-1.4	-0.9	-4.9
COC(=O)C1=C(C)NC(C)=C(C(=O)O[C@@H]2CCCN(Cc3ccccc3)C2)[C@@H]1c1cccc([N+](=O)[O-])c1	-0.4	4	49	.	1	1.7	1.4	3.2
Cc1ccccc1CNC(=O)c1ccccc1NS(C)(=O)=O	3.0	-4	-2	64	-11	-34	0.0	-1.3
C/C(=N\Nc1ccc([N+](=O)[O-])cc1)c1ccc(-n2nncc2C(C)(C)C)cc1	2.4	14	19	-13	4	.	0.3	-3.7
Cc1ccnc2nc(C(=O)NC3=NCCS3)nn12	8.7	-9	.	-5	9	4.4	1.1	1.1
CCCn1cc(C(CC(=O)O)C(=O)O)c2ccccc21 (configuration not stated)	-1.4	-1	5	-6	1	1.0	0.8	0.9
O=C1CC(c2ccc(F)cc2)c2cc3c(cc2N1)CCC3 (configuration not stated)	-0.4	-2	-26	-7	-3	.	0.2	0.4
CC(C)c1ccccc1NC(=O)c1cccc(NC(=O)c2ccccc2)c1	-0.6	6	3	5	1	4.6	-1.0	-2.8
O=C(Nc1ccc(-c2cnco2)cc1)c1ccc(F)cc1F	-3.0	.	-24	-3	0	-6.4	-4.1	2.3
O=C(NC1CCCC1)C(c1ccccn1)N(Cc1ccc(F)cc1)C(=O)c1csnn1 (configuration not stated)	-4.2	-8	19	-5	0	3.0	-0.4	-2.1
COc1ccc(CNc2ccc(S(=O)(=O)N3CCN(C)CC3)cn2)cc1OC	-0.4	-1	5	-2	-2	-0.3	-0.4	-3.4
CC1=NN(Cc2ccccc2)C(=O)/C1=C/c1ccc(N(C)C)cc1	-3.9	-6	13	8	17	9.6	-0.6	-3.1
CCCC(=O)c1ccc(N2CCC(C)CC2)c(F)c1	0.7	-26	-3	18	-6	2.5	-5.2	-0.9
O=C(Nc1ccc2c(c1)ncn2-c1ccccc1)c1ccco1	-1.2	2	-12	9	-6	1.8	0.6	-6.7
CCOc1ccc(C(=O)OCC(=O)NCc2ccco2)cc1OCC	-2.4	-1	-9	-3	-1	-1.7	-0.2	-4.2
CC(C)S(=O)(=O)c1csc(NC(=O)Nc2ccc(Cl)cc2)c1Cl	1.7	12	10	2	8	1.2	0.1	2.0
COc1ccc(S(=O)(=O)N2CCN(c3cccc(C)c3C)CC2)cc1	10	-11	-5	7	1	2.7	-0.3	-1.1
COc1cccc(C(=O)Nc2nc(C)cs2)c1	-2.7	-2	8	-6	4	4.1	-5.8	3.4
COc1ccc(N2C(=O)/C(=C/c3cccs3)NC2=S)cc1	-2.2	-3	2	-3	-4	1.8	-0.6	0.6
COc1ccc(CNC(=O)CSc2nc3ccc(OC)cc3[nH]2)cc1	-0.7	-2	11	-3	4	1.7	-1.6	4.8
COCCNc1oc(/C=C/c2ccc(F)cc2)nc1S(=O)(=O)c1ccccc1	1.3	4	8	-10	5	-399	-0.2	7.4
O=C(Cc1ccccc1)NC1CCN(C(=O)NCc2ccccc2)CC1	2.3	-1	-22	5	-5	5.4	-0.2	-4.1
O=C(NC(=S)Nc1ccc(CN2CCOCC2)cc1)c1ccc(-c2cccc(Cl)c2)o1	-2.0	3	20	10	9	6.4	-0.6	-0.5
O=c1[nH]c2ccc(S(=O)(=O)Nc3ccc(-c4nnc5n4CCCCC5)cc3)cc2o1	-2.7	-3	-8	3	-36	2.7	-0.9	4.5
CC1(C)C2([N+](=O)[O-])CN3CC1([N+](=O)[O-])CN(C2)C31CCCC1	-2.8	-2	-4	3	2	-1.5	-0.1	3.8
COc1ccccc1NC(=O)Nc1nc(CC(=O)NCc2c(F)cccc2F)cs1	0.3	.	5	-6	9	3.8	0.4	0.8
CCOC(=O)c1c(-c2cccc(C)c2)csc1NC(=O)c1c(-c2ccccc2)noc1C	0.1	7	30	-9	5	-11	-0.8	1.0
Cc1ccccc1NC(=O)c1ccc2ccccc2c1	3.7	-3	-12	-1	7	1.2	-6.4	-1.3
COc1ccccc1NS(=O)(=O)c1cc(NC(=O)c2ccc3ccccc3n2)ccc1Cl	-3.4	7	20	-9	11	0.3	0.8	-1.3
Cc1nn(C)cc1/C=N/n1nnnc1N	4.6	.	-11	-13	-6	.	-0.9	2.9
Cc1ccc(NC(=O)c2nc[nH]c2C(=O)N2CCc3ccccc3C2)cc1	.	-1	.	.	-4	-2.4	0.5	0.2
O=C(Cn1cnc2ccc(Cl)cc2c1=O)c1cccs1	1.6	-3	-10	-6	-13	0.7	0.7	2.0
O=C(c1ccco1)N1CCN(Cc2nc3ccccc3c(=O)n2-c2ccc(F)cc2)CC1	-0.6	-3	-2	-15	-6	1.7	-1.0	0.2
Cc1c(C(=S)NC(=O)C2CC2)c(=O)n(-c2ccccc2)n1C	-0.6	0	-16	-8	17	9.3	-0.2	-0.3
CC(=O)c1ccc(NC(=O)Cc2cccs2)cc1	-0.7	.	-6	-7	-3	2.1	-0.8	-3.2
CC(NC(=O)C12CC3CC(CC(C3)C1)C2)C(=O)N/N=C/C1=C(N2CCOCC2)C(=C\c2cccc([N+](=O)[O-])c2)/CC1 (configuration not stated)	0.5	4	52	-1	-10	.	0.2	5.4
Cc1ccc2nc(C)cc(C(=O)N/N=C/c3ccncc3)c2c1	-0.5	-1	-17	2	-2	.	-0.4	0.5
Cc1cc(C)cc(NS(=O)(=O)c2ccc3[nH]cc(C(=O)N4CCc5ccccc54)c(=O)c3c2)c1	4.0	3	-2	-4	4	5.8	0.9	-4.4
O=C(Cc1ccccc1)N[C@@H](Cc1ccccc1)C(=O)O	-5.1	-7	-12	-13	27	3.9	-1.3	6.1
CC[C@@]1(C(=O)OC)N[C@H](CN(C)C(=O)Nc2ccc(Cl)cc2)[C@@H]2C(=O)N(C)C(=O)[C@@H]21	.	-7	.	.	0	3.9	-0.4	0.5
Cc1ccc(N2C(=O)c3ccc(C(=O)O)cc3C2=O)cc1C	5.5	-2	-2	0	4	0.3	-1.8	2.1
O=C(NNc1cccc(Cl)n1)Nc1ccccc1	1.8	.	-17	3	-3	1.8	0.7	2.3
Cc1ccc(C)c(NC(=O)N2CCCCCC2)c1	0.8	-3	5	0	5	0.9	0.9	0.0
COc1ccccc1C1/C(=C(/O)c2ccc(C)cc2)C(=O)C(=O)N1CC(C)O (configuration not stated)	-0.4	1	2	-4	1	3.7	0.8	-1.2
CCCC(=O)NC1=C(C#N)C2(CCCCC2)Cc2ccccc21	8.8	-3	6	-3	-15	0.2	0.6	4.7
c1cc(-c2cc3cc(N4CCOCC4)ccc3o2)cs1	-5.3	-5	-16	-14	1	-11	-1.1	3.2
Cn1cc(S(=O)(=O)Nc2ccc(OC(F)(F)F)cc2)c(=O)n(C)c1=O	3.8	2	6	-2	4	2.1	0.1	-0.3
CCc1ccccc1N(C(C)=O)c1nc(CCl)cs1	2.9	.	0	11	0	3.8	0.8	-3.0
CC1CCCC(C(=O)O)N1C(=O)CCSC(=O)c1ccccc1 (configuration not stated)	0.2	0	-9	9	-1	-0.2	0.4	-1.0
O=C(NC1CCS(=O)(=O)C1)OC1CCCCC1 (configuration not stated)	2.5	-1	6	16	-8	2.6	0.2	-7.0
O=C(NNS(=O)(=O)c1ccccc1)c1cccnc1	4.7	-7	0	-2	-1	0.7	0.8	-4.4
CCCN1CCC(=NNc2ccc(C(=O)O)cc2)CC1	2.8	-14	-17	-6	-5	5.0	-0.3	-2.6
C=CCOc1ccc(CNn2cn[nH]c2=S)cc1	3.6	5	-1	18	-2	0.8	0.4	5.2
CC1=C(C(N)=O)C(c2cccnc2)n2nc(-c3cccc(C)c3)nc2N1 (configuration not stated)	2.8	-2	66*	-4	-5	-2.4	-0.8	2.2
COc1cccc(C(=O)Nc2ccc(Cl)c(C(F)(F)F)c2)c1	-0.8	-14	18	-8	0	2.2	-0.9	-3.2
Cc1ccc(S(=O)(=O)N2CCC(C(=O)N[C@@H](C)C(=O)Nc3ccc(F)cc3)CC2)cc1	6.2	3	-13	28	4	0.7	1.2	3.3
COC(=O)C(Cc1c[nH]c2ccccc12)NC(=O)c1cncc(Br)c1 (configuration not stated)	-0.8	-3	-18	-6	8	1.5	-3.1	2.9
CCc1cc2c(N=Nc3c(O)[nH]c4ccccc34)ncnc2s1	-1.4	2	4	45	-3	6.9	0.8	-3.4
CSc1nc(SCCO)c2sc3nc(-c4ccco4)c4c(c3c2n1)CC(C)(C)OC4	4.4	.	-3	-6	100*	-240	.	.
Carrying on:
SMILES	RanGTP-Imp inh	Beta apoptosis	T cruzi inh	Calb FLC	Beta2AR agonist	UCH37 inh	A1 inh	LANA-H2A inh
Cn1ncc([N+](=O)[O-])c1C(=O)Nc1ccc(-c2nc3ccccc3o2)cc1	-0.1	6	23	-21	-2	.	-0.9	3.4
Cc1ccc(C(=O)n2c(-c3ccccc3)cnc2SCC(=O)Nc2ccccc2)cc1	-2.6	-4	-30	9	-2	0.5	-0.5	3.2
CC(=NCCc1c(C)[nH]c2ccc(C)cc12)C1=C(O)CC(c2ccccc2)CC1=O (configuration not stated)	0.6	1	6	-11	-2	3.5	0.8	-2.2
O=C(Nc1ccc2ccccc2c1)c1ccc(Cl)cc1	3.7	.	-12	-2	-2	-12	-5.3	-3.2
COc1ccc(CN2C(=O)c3ccccc3C2=O)cc1C(=O)OCC(=O)NC1CCCCC1	1.5	0	2	-6	-20	-0.6	-0.6	4.8
CC(=O)Nc1ccc(C2NC(=O)c3ccccc3O2)cc1 (configuration not stated)	0.0	0	-12	9	-3	-2.9	0.4	1.8
Cc1ccc(S(=O)(=O)N(C)C)cc1-n1c(SCC(=O)Nc2ccccc2)nc2ccccc2c1=O	-2.2	1	3	-12	-6	3.2	0.1	-2.1
CC(C)[C@H](NC(=O)c1cccc(S(=O)(=O)N2CCOCC2)c1)C(=O)NCc1ccc(F)cc1	.	-12	.	.	-3	4.8	1.5	3.0
c1ccc2c(c1)nc(N1CCCCCC1)c1ccccc12	0.2	.	9	-11	-1	-46	0.3	-2.4
O=C(Nc1ccccc1N1CCCCC1)c1ccc(-c2cc(Cl)ccc2Cl)o1	1.0	3	12	2	-3	-0.5	0.1	8.2
Cc1ccccc1NC(=S)NC1CCN(Cc2ccccc2)CC1	0.6	-7	-3	0	3	6.2	0.1	7.7
Cc1oc(S(=O)(=O)N2CCCC2)cc1C(=O)Nc1ccccc1	-1.2	3	4	-2	-9	0.6	1.5	0.5
O=C(N/N=C/c1ccc(-c2ccccc2[N+](=O)[O-])o1)[C@H]1C[C@@H]1c1ccccc1	?	-4	-32	-8	8	.	-0.9	3.0
